Menin-MLL FL inh: menin-MLL binding inhibition, fluorescein peptide | 290,000 tested, under 10 active | FP activity change, % at 61.4 µM | AID 1766 | Fluorescence polarization, fluorescein-MLL peptide displacement from menin; inconclusive = falling polarisation curve, or a change in total fluorescence; inactive = total fluorescence flat and polarisation flat or rising; no compound was filed as active; the % refers to the polarisation; negative = inhibition;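 also: % of control where 0% means no effect; inhibitors lower the polarisation; unlabelled MLL peptide was the positive control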
TRPML1 agonist: agonists of human TRPML1 channel | TRPML1-expressing cells, Ca2+ dye fluorescence, FDSS; host cell line not named in the record; reference of the full effect not given here | 0.12% of 410,000 active | Q9GZU1 | activation, % (no concentration beside the values); in the data active = activation above about 50%; inconclusive = about 30% to 50%; inactive = below about 30%; also: 0% is about no effect; the text of the record puts the active cut at 80%
Target sequence (Q9GZU1 whole entry, looked up): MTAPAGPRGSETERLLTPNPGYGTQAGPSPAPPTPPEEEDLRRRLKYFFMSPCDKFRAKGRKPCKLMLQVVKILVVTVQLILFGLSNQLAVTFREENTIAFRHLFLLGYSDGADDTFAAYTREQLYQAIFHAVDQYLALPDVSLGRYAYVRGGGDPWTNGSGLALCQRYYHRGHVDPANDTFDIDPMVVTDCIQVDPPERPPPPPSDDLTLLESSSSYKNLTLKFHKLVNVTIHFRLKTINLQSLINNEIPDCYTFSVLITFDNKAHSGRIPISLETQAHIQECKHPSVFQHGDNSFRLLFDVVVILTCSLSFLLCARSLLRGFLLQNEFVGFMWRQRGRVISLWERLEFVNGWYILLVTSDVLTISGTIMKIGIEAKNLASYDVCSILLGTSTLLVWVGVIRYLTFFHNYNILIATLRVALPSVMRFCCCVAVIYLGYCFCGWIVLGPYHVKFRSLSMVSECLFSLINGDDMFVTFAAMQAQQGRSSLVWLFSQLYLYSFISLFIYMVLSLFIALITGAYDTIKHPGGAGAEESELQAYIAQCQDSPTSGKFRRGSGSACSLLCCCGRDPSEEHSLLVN
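TRPML1-DL cells, Tet-induced overnight (~16 h, 37 degrees C), loaded 45-90 min at room temperature with Ca8 no-wash calcium dye plus quencher. FDSS fluorescence: 10 s baseline, compound pin-transfer, 110 s agonist read, then EC80 54-4 (4uM final) and 110 s antagonist read.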
gsp agonist: gsp mutant agonism; gsp mutant cells, cAMP HTRF, 30 min; control for the full effect not named in the record; Potency, µM (doses to about 76.9 µM), for the others: at the highest dose activation (cAMP increase), hits mostly activators; 0.13% of 340,000 active; active = well fitted activation curve with a large enough effect; inconclusive = small, poorly fitted or top-dose-only effect, or another doubt; inactive = no such curve, though single readings can be large or run the other way; cell line not stated here;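 also: phosphodiesterase inhibitor Ro 20-1724 added with compounds to block cAMP breakdown; potency is read from the fitted curve at half-maximal effect; nearly all actives have a fitted effect of over 60% in size; about a fifth of the inactives were tested at one dose only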
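Cells in DMEM/10% FBS with G418 were pretreated with compounds in DMSO plus […] (300 uM stock) for 30 min at 37C. cAMP was measured by HTRF (cAMP-d2 plus anti-cAMP antibody-K) after 30 min at room temperature.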
TRPML1 inh: blocks the human TRPML1 channel; TRPML1-inducible cells, Ca2+ dye fluorescence, FDSS; active compounds read low; inhibition of EC80 agonist-evoked calcium signal; 0.02% of 390,000 active; activity change, negative = inhibition, % (concentration not given with the values); in the data active means activity change below about -50%; inconclusive means about -30% to -50%; inactive means above about -30%;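 also: stimulus is agonist 54-4 at its EC80 concentration; % is scaled to controls: 0 for no effect and ±100 for the full control effect; the text of the record puts the active cut at -80%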
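Calcium fluorescence in TRPML1-DL cells induced overnight with Tet: a 110 s read after compound pin addition, then a 110 s antagonist read after challenge with 54-4 at 4 uM final (EC80).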
gsp antagonist: antagonists of gsp mutant (McCune-Albright syndrome) | gsp-mutant cells, cAMP HTRF, 30 min; control for the full effect not named in the record | Potency, µM (highest dose often 76.9 µM), without a hit: at the highest dose activity change, negative = inhibition, actives largely listed as inhibitors | 0.4% of 340,000 active | AID 624288; active = falling curve of any shape with a large fitted effect; inconclusive = falling curve, mostly with a smaller effect; inactive = flat or rising curve; cell line not stated here;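 also: intracellular cAMP measured with PDE inhibitor Ro 20-1724 present during compound exposure; potency is read from the fitted curve at half-maximal effect; % is scaled to controls: 0 for no effect and ±100 for the full control effect; nearly all actives have a fitted effect of over 65% in size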
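Cells in G418 medium, seeded 16-24 h, 37C; buffer exchange to DPBS + 1 mM CaCl2, 0.5 mM MgCl2, 0.05% BSA; cpds in DMSO + […] (300 uM stock), 30 min 37C; HTRF cAMP detection.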
ClpP mod: qHTS Assay for Activators of ClpP | ATP-dependent Clp protease proteolytic subunit (Bacillus subtilis (strain 168)), P80244 | 1.9% of 340,000 active | purified B. subtilis ClpP, FRET peptide cleavage, 20 min | Potency, µM (titrated, usually from 57.5 µM), without a hit: at the highest dose activity change, negative = active; active = well fitted falling curve with a large enough effect; inconclusive = small, poorly fitted or top-dose-only effect; inactive = no such curve, though single readings can be large or run the other way; also: potency is read from the fitted curve at half-maximal effect; the source files actives as falling curves though it sought activators and does not explain the sign; nearly all actives have a fitted effect of over 65% in size; many hits overshoot -100%
Target sequence (P80244 whole entry, looked up): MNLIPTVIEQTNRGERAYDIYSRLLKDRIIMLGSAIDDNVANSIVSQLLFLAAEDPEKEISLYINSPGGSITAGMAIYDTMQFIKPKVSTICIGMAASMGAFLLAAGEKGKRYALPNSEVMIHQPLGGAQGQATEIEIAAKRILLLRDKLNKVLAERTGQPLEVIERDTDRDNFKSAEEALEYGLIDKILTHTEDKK
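ClpP 10 microg/mL final, pH 8 Tris/KCl buffer with BSA, glycerol, Tween-20; compound pinned in; FRET-FV substrate; RT 20 min; Ex320/Em430; ΔFRET vs ADEP 5.8 microM, DMSO, no enzyme.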
Starred values were filed as active, the others as inactive; ? = inconclusive; nt = no result given; [ ] = another dose, or the depositor's remark. Not a hit list (roughly 2.1% active in at least one column).

SMILES	Menin-MLL FL inh	TRPML1 agonist	gsp agonist	TRPML1 inh	gsp antagonist	ClpP mod
COc1ccccc1NC(=O)C1=C(C)Nc2ncnn2C1c1ccccn1 (configuration not stated)	nt	-0.4	nt	-10	nt	-0.1%
O=C(NCc1cccs1)C1CCN(S(=O)(=O)c2ccccc2F)CC1	1.0	-0.2	8%	-4	4%	-2.3%
COc1ccc(C)cc1NC(=O)CCS(=O)(=O)c1ccc2c(c1)CCN2C(C)=O	-4.0	1.0	-33%[inhibitor]	5	3%	-3.4%
CCc1nnc(NC(=O)CSc2nnc(C)n2Cc2ccccc2)s1	2.1	-0.5	-45%	5	3%	1.1%
O=C(COC(=O)CCC1CCCCC1)Nc1ccc(OC(F)F)cc1	0.0	-0.3	-18%	-10	7%	-1.9%
O=C(CN1CCCCCCC1)Nc1cc(Cl)cc(Cl)c1	-1.5	0.2	24%	4	-2%	nt
Cc1ccc(NC(=O)C2CCCN2C(=O)OCc2ccccc2)c(C)c1 (configuration not stated)	-8.4	0.8	29%	61	7%	-1.3%
CC(C)CC(C(=O)Nc1ccccc1)N1C(=O)C2C3C=CC(C3)C2C1=O (configuration not stated)	-2.4	-0.2	?	4	5%	nt
CC1CCc2cc(F)cc3c(O)c(C(=O)NCCN(C)C)c(=O)n1c23 (configuration not stated)	3.5	0.5	?	5	13%	4.4%
CCOC(=O)c1oc2cc(O)c(CC)cc2c(=O)c1-c1cscn1	2.8	0.7	?	?	10%	nt

Results in gsp agonist, gsp antagonist and TRPML1 inh (six entries from above):
| SMILES | gsp agonist | gsp antagonist | TRPML1 inh |
| --- | --- | --- | --- |
| O=C(NCc1cccs1)C1CCN(S(=O)(=O)c2ccccc2F)CC1 | 8% | 4% | -4 |
| COc1ccc(C)cc1NC(=O)CCS(=O)(=O)c1ccc2c(c1)CCN2C(C)=O | -33%[inhibitor] | 3% | 5 |
| CCc1nnc(NC(=O)CSc2nnc(C)n2Cc2ccccc2)s1 | -45% | 3% | 5 |
| O=C(COC(=O)CCC1CCCCC1)Nc1ccc(OC(F)F)cc1 | -18% | 7% | -10 |
| O=C(CN1CCCCCCC1)Nc1cc(Cl)cc(Cl)c1 | 24% | -2% | 4 |
| Cc1ccc(NC(=O)C2CCCN2C(=O)OCc2ccccc2)c(C)c1 (configuration not stated) | 29% | 7% | 61 |

Next part
SMILES	Menin-MLL FL inh	TRPML1 agonist	gsp agonist	TRPML1 inh	gsp antagonist	ClpP mod
O=c1cnnc(Nc2cccc(F)c2)[nH]1	9.6	0.8	-45%[inhibitor]	49	-3%	nt
COc1cccc(CN(C(=O)Cn2nnc(-c3ccccc3F)n2)C(C(=O)NC(C)(C)C)c2ccncc2)c1 (configuration not stated)	-0.3	1.8	-9%[15.4 µM]	-9	-10%	nt
CCOC(=O)C1=CCN(S(=O)(=O)c2ccc(C)cc2)C1c1cccs1 (configuration not stated)	nt	2.0	nt	-4	nt	-0.1%
O=C(Nc1ccc(F)cc1)c1nc[nH]c1C(=O)Nc1ccccc1[N+](=O)[O-]	1.1	0.6	?	7	18%	-2.2%
CC(Sc1ncn[nH]1)C(=O)Nc1cc(C(F)(F)F)ccc1Cl (configuration not stated)	nt	-0.8	-1%	-8	4%	1.2%
Cc1cc(C)cc(NC(=O)CC(C)n2nc(C)cc2C)c1 (configuration not stated)	nt	0.5	nt	5	nt	-0.3%
COC(=O)Nc1ccc(S(=O)(=O)N2c3ccccc3CCC2C)cc1 (configuration not stated)	3.3	2.3	28%	17	10%	-1.4%
Cc1cc(OCC(=O)N2CCOCC2)ccc1NC(=O)c1ccccc1C	nt	-0.4	-44%[inhibitor]	21	24%	0.5%
COc1ccc(N2C(N)=C(C#N)C(c3ccsc3)C3=C2CCCC3=O)c(OC)c1 (configuration not stated)	-0.6	0.5	3%	0	1%	-1.2%
CCN(CC(=O)Nc1ccccc1OC)C(=O)c1cc(S(=O)(=O)N2CCCCCC2)ccc1OC	nt	-1.1	1%	16	-4%	-3.4%

The last 2 entries of the section above open the next one.
SMILES	Menin-MLL FL inh	TRPML1 agonist	gsp agonist	TRPML1 inh	gsp antagonist	ClpP mod
COc1ccc(N2C(N)=C(C#N)C(c3ccsc3)C3=C2CCCC3=O)c(OC)c1 (configuration not stated)	-0.6	0.5	3%	0	1%	-1.2%
CCN(CC(=O)Nc1ccccc1OC)C(=O)c1cc(S(=O)(=O)N2CCCCCC2)ccc1OC	nt	-1.1	1%	16	-4%	-3.4%
COc1cc(C(=S)N2CCOCC2)cc(OC)c1OC(=O)c1cc([N+](=O)[O-])c(C)c([N+](=O)[O-])c1	5.4	-0.4	-29%	-4	0%	-2.7%
CCSc1ncc(Cl)c(C(=O)Nc2cccc(Cl)c2)n1	nt	4.7	nt	48	nt	-3.9%
COc1ccc2nc3oc(C(=O)NCc4ccccc4OC)cc3cc2c1	nt	-0.7	nt	-12	nt	3.6%
CCOc1ccc2[nH]cc(C(=O)NCCCN3CCOCC3)c(=O)c2c1	-1.0	0.5	3%[15.4 µM]	23	6%	nt
CC1(C)C(=O)Nc2ccccc2N1C(=O)CSc1nnc2c(Cl)cc(Cl)cn12	2.5	-0.6	20%	-1	3%	-3.1%
CCN(CC(=O)NCc1ccc(Cl)cc1)C(=O)c1cc(S(=O)(=O)NCc2ccccc2)ccc1C	2.9	0.4	-12%	-8	-15%	-2.5%
CCCCNC(=O)C1CCCN(S(=O)(=O)CCC)C1 (configuration not stated)	nt	1.6	nt	-8	nt	-2.3%
CCOc1ccc(C2C(C(=O)c3ccc(C)o3)=C(O)C(=O)N2Cc2cccnc2)cc1 (configuration not stated)	nt	0.3	7.9µM*	-18	30%	-2.7%
Cc1cc(O)ccc1Nc1nc2ccccc2nc1Nc1ccc(O)cc1C	12	1.4	0%	12	-16%	-4.7%
O=C(O)CSc1c2c(nc3cc(C(=O)Nc4cccc(C(F)(F)F)c4)ccc13)CCC2	nt	0.4	-10%	4	4%	-1.7%
C=CCc1c(C)nc2cc(-c3ccccc3)[nH]n2c1=O	-0.9	0.7	2%	-2	-5%	4.1%
Cc1cc(NC(=O)C(C)SCC(=O)Nc2ccc(C(=O)OC(C)C)cc2)no1 (configuration not stated)	nt	-0.9	0%	7	nt	-2.6%
CCOC(=O)c1nnn(CC(=O)Nc2cc(C)cc(C)c2)c1C(=O)OCC	nt	-1.2	nt	6	nt	1.3%
O=C(C1CCC(CNc2c(N3CCOCC3)c(=O)c2=O)CC1)N1CCN(c2ccccc2)CC1 (configuration not stated)	4.6	0.1	7%	-19	-4%	-1.8%
O=C(c1ccc2c(Cl)c3c(nc2c1)CCCC3)N1CCN(c2ccc(Cl)cc2)CC1	nt	-0.8	nt	0	nt	1.4%
CCOC(=O)Cc1csc(NC(=O)c2ccc(S(=O)(=O)N3CCOCC3)cc2)n1	-3.1	-1.0	-8%[15.4 µM]	39	6%	-8.2%
O=[N+]([O-])c1ccc(S(=O)(=O)CC(CN2CCCCC2)N2CCCCC2)cc1 (configuration not stated)	-0.9	-0.3	-3%	-4	2%	2.9%
Cc1ccc2sc(N(Cc3cccnc3)C(=O)C3COc4ccccc4O3)nc2c1C (configuration not stated)	nt	1.7	nt	-2	nt	1.4%
CCc1ccccc1NC(=O)CN1C(=O)CCn2nc(-c3cccn3C)cc21	nt	0.3	nt	2	nt	0.6%
COC(=O)c1ccc(C(C(=O)NCc2ccccc2)N(Cc2ccco2)C(=O)c2cnccn2)cc1 (configuration not stated)	?	0.3	2%	-3	-17%	1.1%
CCOc1ccc2[nH]c(C)c(CN3CCCCCC3)c(=O)c2c1	4.7	0.2	-2%[15.4 µM]	12	-1%	-5.3%
CCc1cccc(N(CC(=O)NCc2ccc(F)cc2)C(=O)c2csnn2)c1	1.6	-0.2	0%[15.4 µM]	6	4%	nt
O=C(CN1C(=O)c2cccc3cccc(c23)C1=O)NCCCO	-0.6	2.6	14µM*	8	2%	3.6%
COc1ccc(C2=NOC(CNC(=O)c3ccccc3Br)C2)c(OC)c1 (configuration not stated)	0.6	3.1	-18%	-20	-3%	-3.2%
COc1ccc(C(=O)Nc2ncc3c(n2)-c2ccccc2CC3)cc1	2.1	0.7	-7%	-12	-6%	-22%
Cc1cc(C(=O)OCC(=O)Nc2ccc(F)cc2F)c(C)o1	4.2	1.0	-5%	5	14%	-0.9%
CN(C)CCCN1C(=O)c2oc3ccc(Cl)cc3c(=O)c2C1c1cccnc1 (configuration not stated)	-1.9	-0.7	-109%[inhibitor]	14	-2%	4.0%
COCCOC(=O)c1c(C)n(C)c2ccc(OC(=O)c3ccccc3OC)cc12	-6.8	1.2	-43%[inhibitor]	-13	1%	0.4%
O=[N+]([O-])c1cc2cccnc2c2ncccc12	4.7	0.8	6%	17	1%	-1.4%
O=C(c1ccc2c(c1)N(Cc1ccc(F)cc1)C(=O)CS2)N1CCOCC1	0.7	0.7	-40%	-1	6%	-0.9%
Cc1ncc(S(=O)(=O)c2ccccc2)c(-c2ccccc2Cl)n1	1.1	2.1	-1%	67	-3%	-0.7%
CCOC(=O)NN1C(=O)c2ccccc2NC1(C)C	4.2	1.2	9%	-5	7%	4.6%
COc1ccc(N2CCN(C(=O)CCn3c(=O)c4cccn4c4cccnc43)CC2)cc1	nt	1.8	nt	-13	nt	-1.6%
O=c1c2cn(Cc3ccc(F)cc3)c3ccc(F)cc3c-2nn1Cc1ccc(F)cc1	6.0	-0.4	-39%[inhibitor]	1	-10%	nt
CC(C)N1CC(C(=O)Nc2ccc(Cl)c([N+](=O)[O-])c2)CC1=O (configuration not stated)	2.6	-0.6	?	2	-1%	-1.7%
CCOc1ccc(/C(O)=C2/C(=O)C(=O)N(CCOCCO)C2c2ccccc2)cc1 (configuration not stated)	-5.9	-0.7	?	5	10%	-1.5%
CCc1ccc(NC(=O)c2sc3nc(C)cc(C)c3c2NC(=O)c2ccccc2)cc1	nt	0.7	nt	7	nt	-4.7%
O=C(CSc1nc(C2CC2)nc2ccccc12)N1CCc2ccccc21	nt	nt	?	nt	8%	-2.8%
Cc1cccc(C(C)C)c1NS(=O)(=O)c1cn(C)nc1C	nt	-0.6	8%	-5	0%	0.2%
Cc1nc(C)n(C(Oc2ccc(Cl)cc2Cl)C(=O)C(C)(C)C)n1 (configuration not stated)	nt	0.8	15%[15.4 µM]	-14	-6%	nt
CCC1CCCCN1CC(C)(C)NS(=O)(=O)c1ccccc1 (configuration not stated)	8.6	-0.1	2%[15.4 µM]	-5	3%	nt
CC1C(=O)N2CCCc3cc(S(=O)(=O)N4CCN(c5ccc(F)cc5)CC4)cc1c32 (configuration not stated)	0.6	-1.1	-9%	-12	-4%	0.1%
Cc1cc(C)n2c(Nc3cccc(C(F)(F)F)c3)c(-c3ccsc3)nc2n1	nt	0.3	nt	10	nt	-6.8%
